Assay outcomes: PubChem BioAssay, National Center for Advancing Translational Sciences (NCATS)
HPGD block = qHTS Assay for Inhibitors of HPGD (15-Hydroxyprostaglandin Dehydrogenase); AID 894, 2007; 15-hydroxyprostaglandin dehydrogenase [NAD(+)] (Homo sapiens), P15428; Potency, µM, without a hit: at the highest dose activity change, negative = inhibition, usual class: inhibitors; purified HPGD, NADH fluorescence kinetic, PGE2 substrate; 4.3% of 150,000 active; active = well fitted inhibition curve with a large enough effect (not every such curve was filed as active); inconclusive = small, poorly fitted or top-dose-only effect, or another doubt; inactive = no such curve, though single readings can be large or run the other way;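 note: top concentration of the series not given in the record; plate controls included wells without enzyme; inactives centre near -10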
Target sequence (P15428 whole entry, looked up): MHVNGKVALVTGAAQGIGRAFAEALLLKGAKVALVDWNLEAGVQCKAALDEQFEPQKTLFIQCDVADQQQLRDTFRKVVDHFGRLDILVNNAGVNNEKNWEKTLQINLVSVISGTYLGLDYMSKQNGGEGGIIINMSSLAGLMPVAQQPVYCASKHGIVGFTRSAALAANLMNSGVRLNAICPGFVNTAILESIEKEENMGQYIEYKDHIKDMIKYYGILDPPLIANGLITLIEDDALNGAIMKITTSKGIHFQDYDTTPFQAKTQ
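20 nM HPGD preincubated 15 min at room temperature with compound in 50 mM Tris-HCl pH 8, 0.01% Tween 20. Started with 1 mM NAD+ and 30 uM prostaglandin E2; NADH fluorescence (360/450 nm) read 5 times over 30-s intervals, last minus first.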
* marks the source's active call; other numbers are inactive results; ? = inconclusive; & = joins results of further samples. % is set by controls: 0 for no effect and ±100 for the full control effect; potency is the fitted concentration of half-maximal effect. The list is partial; rates above refer to the full screens.

No. | HPGD block | mol
1 | -9.1% | NS(=O)(=O)c1ccc(CCNC(=O)C2CCCCC2)cc1
2 | -8.1% | COc1ccccc1C(=O)NCCc1nc2ccccc2n1C
3 | -18.5% | Cc1cc(C)cc(N(C(=O)Cn2nnc3ccccc32)C(C(=O)NCc2ccco2)c2ccncc2)c1 (stereo unspecified)
4 | -11.2% | NCCCc1c(-c2ccccc2)nc(N)[nH]c1=O
5 | -19.3% | Cc1ccc(N2C(=O)c3ccccc3C2C(=O)c2ccc(O)cc2O)cc1 (stereo unspecified)
6 | -14.4% | N/C(COc1ccccc1)=N\NC(=O)c1cccnc1Oc1ccccc1
7 | ? | Cc1cc(C(F)(F)F)nn1Cc1n[nH]c(=S)n1Cc1ccccc1
8 | -3.2% | C[C@H]1Cc2c(-c3ccccc3)nc3c(c2CO1)CN(C(=O)NCc1ccco1)CC3
9 | ? | CCOC(=O)c1cnc2cc(-c3ccc(C)cc3)nn2c1-c1ccccc1
10 | -4.8% | NS(=O)(=O)c1ccc(CCNCc2cc(Br)ccc2OCc2ccccc2)cc1
11 | -15.1% | CCc1cc2c(-c3ccccc3)cc(=O)oc2c(CN2CCOCC2)c1O
12 | -18.9% | Clc1ccc(CCNc2nc3ccccc3n3nnnc23)cc1
13 | -21.7% | Cc1ccc(S(=O)(=O)c2nc(-c3ccco3)oc2SCC(=O)NCC2CCCO2)cc1 (stereo unspecified)
14 | -7.9% | CCOc1cc(C(=O)Nc2ccc([N+](=O)[O-])cn2)cc(OCC)c1OCC
15 | -10.8% | Cc1c(Cl)cnc(NC(=O)COC(=O)CCc2nc3ccccc3s2)c1Cl
16 | -2.0% | Cc1ccc(OCC(=O)N2CCN(C(=O)c3cccnc3)CC2)cc1
17 | -14.5% | CC1(C)CC(=O)c2cn3nc(C(F)(F)F)nc3nc2C1
18 | 4.6% | CCCNC(=O)C(Cc1ccccc1)NS(=O)(=O)c1ccc2c(c1)CCC(=O)N2 (stereo unspecified)
19 | -9.2% | CCOc1ccc(N2C(=O)CC(N3CCOCC3)C2=O)cc1 (stereo unspecified)
20 | -13.7% | COc1ccc(NC(=O)c2ccc(C#N)cc2)cc1NS(=O)(=O)c1ccc(F)cc1
21 | -26.8% | COc1cc2[nH]c(=O)c(C(=O)NCCCN3CCCCC3)c(O)c2cc1OC
22 | -6.0% | O=C(Nc1cccc(Cl)c1)Nn1cnnc1
23 | -12.3% | NC(=O)C/C=C\CC(N)=O
24 | -18.0% | COc1ccccc1C1C(C#N)=C(N)Oc2cc(C)n(Cc3ccccn3)c(=O)c21 (stereo unspecified)
25 | -0.6% | CCN(CC)C(=O)CNC(=S)N(CCCN1CCOCC1)Cc1cccs1
26 | -6.1% | NC(=O)CN1CCN(c2nc(-c3ccc(F)cc3)cs2)CC1
27 | -4.2% | Cc1ccc2c(c1)C(=O)[C@@]1(O)CCN(c3ccccc3)C1=N2
28 | -5.8% | CC1CCC(C(C)C)[C@H](OC(=O)c2ccccc2)C1 (stereo partly specified)
29 | -25.2% | CCCCCCCCn1c(N2CCN(c3cccc(Cl)c3)CC2)nc2c1c(=O)[nH]c(=O)n2C
30 | -28.6% | C(=N\n1cnnc1)/c1ccc(OCc2ccccc2)cc1

Filtered by structure: the compounds so far with a CF3 group.
No. | HPGD block | mol
7 | ? | Cc1cc(C(F)(F)F)nn1Cc1n[nH]c(=S)n1Cc1ccccc1
17 | -14.5% | CC1(C)CC(=O)c2cn3nc(C(F)(F)F)nc3nc2C1

Further results follow.
No. | HPGD block | mol
31 | -12.2% | Cc1oc2ccc(NS(=O)(=O)c3cccc4cccnc34)cc2c1C(=O)OC(C)C
32 | -18.2% | CCNC(=O)CN(c1ccc(C)cc1)S(=O)(=O)c1ccc(SC)cc1
33 | -4.3% | Cc1cc(C(=O)COc2ccc(C#N)cc2)c(C)n1-c1ccc2c(c1)OCO2
34 | -29.6% | CCCc1cc(-c2nc(-c3ccc(Cl)cc3)cs2)ccn1
35 | -9.1% | Cc1nc2c(ccc3nc(NC(=O)C(c4ccccc4)c4ccccc4)sc32)s1
36 | -14.8% | COc1cc(CNCc2cccs2)ccc1OCc1cccs1
37 | ? | O=C(O)Cc1c(O)ccc2ccccc12
38 | 1.3% | Cc1ccc(CNC(=O)CSc2n[nH]c(N)n2)cc1
39 | -2.2% | CC(C)C[C@@H](CC(=O)N[C@H](CC(=O)N[C@@H]1CCNC[C@H]1C(=O)N[C@H](CC(=O)N[C@@H](CCC(=O)O)CC(=O)O)Cc1c[nH]c2ccccc12)C(C)C)NC(=O)[C@@H]1CCCC[C@H]1N
40 | -17.6% | N#CC1=C(N)C(C#N)(C#N)C(c2cccnc2)C2CN(C(=O)OCc3ccccc3)CC=C12 (stereo unspecified)
41 | -15.8% | CCCCCCN1CC(C(=O)OCC)C(=O)C1=O (stereo unspecified)
42 | 25.1µM* | CCCCSc1nnc(CSc2nc3nc(C)cc(C)n3n2)o1
43 | -9.9% | COc1ccc(-c2cn(-c3ccc(OC)cc3)c3[n+]2-c2ccccc2CC3)cc1
44 | -23.1% | O=C(CSc1nc2ccccc2c(=O)n1Cc1ccc(Cl)cc1)NCc1cccs1
45 | 1.4% | O=C(c1noc2c1CCCCC2)N1CCOCC1
46 | -0.8% | CCOC(=O)CN1C(=O)N[C@@H](c2cccc(C(F)(F)F)c2)C(C(=O)OC)=C1C
47 | ? | COc1ccc(-c2cnc(-c3cccnc3)o2)cc1
48 | ? | O=C(Nc1cccc(-c2nc3ncccc3o2)c1)c1sc2cc(Cl)ccc2c1Cl
49 | -13.2% | CC(C)OP(=O)(c1ccc(N(C)C)cc1)C(O)c1ccccc1 (stereo unspecified)
50 | -3.9% | COc1ccc(-c2nc3c(c4c2C[C@H](c2ccccc2)OC4)CN(S(=O)(=O)c2ccc(C)cc2)CC3)c(C)c1
51 | -11.4% | COc1ccc(NC(=O)c2nc3nc(C)cc(C(F)F)n3n2)cc1OC
52 | -15.6% | COc1ccc2[nH]c3nc(SCC(=O)NNC(=O)c4ccc(OC)c(OC)c4)nnc3c2c1
53 | -12.6% | CSc1nsc(SC)c1C(=O)N1CCN(S(=O)(=O)c2ccc(C)cc2)C1C(C)C (stereo unspecified)
54 | -22.0% | C/C(=N\NC(=O)c1cccc(S(=O)(=O)Nc2ccccc2Cl)c1)c1ccc(-n2ccnc2)cc1
55 | -11.9% | COc1ccc(/C=C/C(=O)Nc2ccc(OC)nc2)cc1
56 | -6.6% | CN1CCN(C(=S)c2ccc(Cl)cc2)CC1
57 | 3.5% | CSCCC(NC(=O)C1CCC(C)CC1)C(=O)OCC(=O)c1ccc(Cl)cc1 (stereo unspecified)
58 | -18.4% | O=c1c2c(-c3ccco3)csc2nc(SCc2cn3cccnc3n2)n1-c1ccccc1
59 | -2.8% | CCC(C)NCCOCCOc1ccc(F)cc1 (stereo unspecified)
60 | ? | Cc1ccc2cc(/C=N/NC(=O)[C@H]3C[C@@H]3c3ccccc3)c(Cl)nc2c1

Going on with the list:
No. | HPGD block | mol
61 | ? | CC(=O)Oc1ccc(C(=O)[C@H]2[C@H]3C(=O)N(c4cccc5ccccc45)C(=O)[C@H]3[C@@H]3C=CC=NN32)cc1
62 | -8.7% | CC(=O)N1CCC2(CC1)C(C#N)=C(N)Oc1n[nH]c(C(F)(F)F)c12
63 | -2.2% | CCN(CC)c1ncnnc1-c1ccccc1
64 | -9.1% | CC1CN(S(=O)(=O)c2ccccc2)C(C)CN1S(=O)(=O)c1ccccc1 (stereo unspecified)
65 | -18.1% | N#C/C(=C\c1ccc(-c2ccc(F)cc2)o1)C(=O)Nc1nc(-c2cccs2)cs1
66 | -18.6% | COC(=O)Cn1cnc2c(nnn2-c2ccc(C)cc2)c1=O
67 | -21.1% | COc1cc(/C=N/O)cc(Cl)c1OC
68 | 11.2µM* | O=C(c1ccc2c3c(cccc13)CC2)N1CCOCC1
69 | 4.2% | Cc1ccc(CS(=O)(=O)CCC(=O)NCCC(C)C)cc1
70 | -10.4% | CC1CCCN(c2nc3c(c(=O)[nH]c(=O)n3C)n2CCSc2nc3ccccc3o2)C1 (stereo unspecified)
71 | -10.2% | CC1CCN(CCCCOc2cccc(Br)c2)CC1
72 | -12.4% | Cc1csc(SCC(=O)NC(=O)Cc2ccccc2)n1
73 | -11.7% | Clc1ccccc1-c1ccc(CN2CCN(c3ccccc3)CC2)o1
74 | -7.7% | Cc1nnc(NC2=NCCCCC2)o1
75 | -1.8% | O=C(NCCC1=CCCCC1)C1CC(=O)N(C2CCCCCC2)C1 (stereo unspecified)
76 | -5.7% | CC(=O)c1cc2c(cc1NC(=O)CN1CCOCC1)OCO2
77 | -5.2% | CC(=O)c1ccccc1C(=O)NCc1cccnc1
78 | -3.0% | COc1cccc(N2CCN(C(=S)NCCc3ccccc3)CC2)c1
79 | 0.4% | Cc1ccc(S(=O)(=O)N2CCN(C(=O)CSc3nnc(C)c(=O)[nH]3)CC2)cc1
80 | -21.8% | Nc1nonc1NC(=O)CSc1nc2ccccc2s1
81 | -6.2% | COC(=O)c1ccc(C)c(NC(=O)CCc2ccc(OC)c(OC)c2)c1
82 | -3.3% | CC(=C1C2C=CC1C1C(=O)NC(=O)C21)c1ccccc1 (stereo unspecified)
83 | -1.9% | c1ccc(-n2nnnc2Oc2ccc(-n3ccnc3)cc2)cc1
84 | -5.3% | CCN(CC)CCN1C(=O)C(=O)/C(=C(/O)c2c(C)[nH]c(C(=O)OC)c2C)C1c1ccccc1 (stereo unspecified)
85 | -13.2% | O=C(NCc1ccccn1)/C(=N/O)c1ccccc1
86 | -5.7% | Cc1cc(NC(=O)c2sccc2C)n(-c2cccc(Cl)c2)n1
87 | ? | Cc1ccc(-c2nc3cc(Cl)ccc3o2)cc1
88 | -25.8% | Cc1cccc(CNc2nc(-c3cccnc3)nc3ccccc23)c1
89 | -7.1%&-14.3% | COc1cccc([C@@H]2Oc3ccc(Br)cc3C(=O)[C@H]2OC(=O)NC2CCCC2)c1
90 | -4.7% | COc1ccc(C)cc1S(=O)(=O)Nc1cc(Cl)ccc1Cl

Going on with the list.
No. | HPGD block | mol
91 | -4.0% | COc1ccc(CN(C)Cc2nc3scc(-c4ccccc4)c3c(=O)[nH]2)cc1OC
92 | -9.1% | CCC1CCCCN1CCNC(=O)CNS(=O)(=O)c1ccc2nc(C)sc2c1 (stereo unspecified)
93 | -12.4% | Cc1ccc(-n2ncc3c(=O)n(CC(=O)NC4CCCCC4)cnc32)cc1
94 | -8.7% | CCCCCC(=O)/C=C/[C@H]1[C@H](O)CC(=O)[C@@H]1C/C=C\CCCC(=O)O
95 | -1.7% | CSCC[C@H](NC(=O)NCc1cccs1)C(=O)O
96 | -8.6% | O=C1CC(c2ccc(Cl)cc2)n2nc(N3C(=O)CCC3=O)nc2N1 (stereo unspecified)
97 | 0.2% | CCN(CC)S(=O)(=O)c1ccc(C(=O)NCc2ccc(C)cc2)cc1
98 | 1.0% | O=C(Nc1ccc2c(c1)OCCO2)c1cc(-n2cnnc2)ccc1Cl
99 | -15.3% | Cc1cccc(Nc2nc(N)c([N+](=O)[O-])c(N3CCN(C)CC3)n2)c1
100 | -17.3% | O=C(Nc1nc2ccc(S(=O)(=O)N3CCCC3)cc2s1)c1ccco1
101 | -11.1% | Cc1cc(C=O)c(C)n1-c1ccc(Oc2ccc([N+](=O)[O-])cn2)cc1
102 | -12.1% | S=C(NCc1ccccn1)Nc1ccccc1
103 | -15.6% | CC1(C)CC(=O)C2=C(C1)OC(N)=C(C#N)C2c1ccc(OC(=O)N2CCOCC2)cc1 (stereo unspecified)
104 | -22.9% | Cn1cccc1CC(=O)N/N=C/C(Cl)=C/c1ccccc1

Structures shown so far containing a Cl atom (19):
No. | HPGD block | mol
12 | -18.9% | Clc1ccc(CCNc2nc3ccccc3n3nnnc23)cc1
15 | -10.8% | Cc1c(Cl)cnc(NC(=O)COC(=O)CCc2nc3ccccc3s2)c1Cl
22 | -6.0% | O=C(Nc1cccc(Cl)c1)Nn1cnnc1
29 | -25.2% | CCCCCCCCn1c(N2CCN(c3cccc(Cl)c3)CC2)nc2c1c(=O)[nH]c(=O)n2C
34 | -29.6% | CCCc1cc(-c2nc(-c3ccc(Cl)cc3)cs2)ccn1
44 | -23.1% | O=C(CSc1nc2ccccc2c(=O)n1Cc1ccc(Cl)cc1)NCc1cccs1
48 | ? | O=C(Nc1cccc(-c2nc3ncccc3o2)c1)c1sc2cc(Cl)ccc2c1Cl
54 | -22.0% | C/C(=N\NC(=O)c1cccc(S(=O)(=O)Nc2ccccc2Cl)c1)c1ccc(-n2ccnc2)cc1
56 | -6.6% | CN1CCN(C(=S)c2ccc(Cl)cc2)CC1
57 | 3.5% | CSCCC(NC(=O)C1CCC(C)CC1)C(=O)OCC(=O)c1ccc(Cl)cc1 (stereo unspecified)
60 | ? | Cc1ccc2cc(/C=N/NC(=O)[C@H]3C[C@@H]3c3ccccc3)c(Cl)nc2c1
67 | -21.1% | COc1cc(/C=N/O)cc(Cl)c1OC
73 | -11.7% | Clc1ccccc1-c1ccc(CN2CCN(c3ccccc3)CC2)o1
86 | -5.7% | Cc1cc(NC(=O)c2sccc2C)n(-c2cccc(Cl)c2)n1
87 | ? | Cc1ccc(-c2nc3cc(Cl)ccc3o2)cc1
90 | -4.7% | COc1ccc(C)cc1S(=O)(=O)Nc1cc(Cl)ccc1Cl
96 | -8.6% | O=C1CC(c2ccc(Cl)cc2)n2nc(N3C(=O)CCC3=O)nc2N1 (stereo unspecified)
98 | 1.0% | O=C(Nc1ccc2c(c1)OCCO2)c1cc(-n2cnnc2)ccc1Cl
104 | -22.9% | Cn1cccc1CC(=O)N/N=C/C(Cl)=C/c1ccccc1
